Ran importin = inhibitors of Ran–importin-beta complex formation, primary screen, biochemical, CFP-Ran/YFP-importin-beta FRET, RCC1, cell-free (AID 434961); CFP-Ran/YFP-importin-beta FRET, cell-free; active compounds read high; inhibition, %; actives 0.2% (n = 7,700);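 active = more than half of the replicate wells above 15% inhibition; inconclusive = exactly half above it; inactive = fewer than half above it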;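 note: 0% = DMSO wells and 100% inhibition = RanGDP control wells on each plate; stock of unstated strength diluted about 400-fold; mean of two wells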
Starred values were filed as active, the others as inactive; ? = inconclusive.

Ran importin	SMILES
-8.0	C[C@H]1CN([C@@H](C)CO)C(=O)c2cccc(NS(=O)(=O)c3ccc(Cl)cc3)c2O[C@@H]1CN(C)S(=O)(=O)c1cn(C)cn1
2.4	C[C@H]1CN([C@@H](C)CO)C(=O)Cc2cc(NS(=O)(=O)c3cn(C)cn3)ccc2O[C@@H]1CN(C)CC1CC1
0.8	Cc1noc(C)c1S(=O)(=O)N(C)C[C@H]1Oc2ccc(NC(=O)Cc3cn(C)c4ccccc34)cc2CC(=O)N([C@@H](C)CO)C[C@H]1C
5.4	C[C@H](CO)N1C[C@H](C)[C@H](CN(C)C(=O)Nc2cccc3ccccc23)Oc2ncc(C#Cc3ccccc3)cc2C1=O
2.0	C[C@@H]1CCCCO[C@H](CN(C)C(=O)C2CCCCC2)[C@H](C)CN([C@H](C)CO)C(=O)c2cc(NC(=O)Nc3ccccc3)ccc2O1
-4.9	COc1ccc(S(=O)(=O)N(C)C[C@H]2Oc3ccc(NC(=O)Nc4cccc5ccccc45)cc3CC(=O)N([C@@H](C)CO)C[C@@H]2C)cc1
-4.6	CC(C)NC(=O)N(C)C[C@@H]1OCCCC[C@H](C)Oc2ccc(NS(C)(=O)=O)cc2C(=O)N([C@@H](C)CO)C[C@@H]1C
-1.0	COc1ccccc1NC(=O)N(C)C[C@@H]1OCc2cnnn2CCCC(=O)N([C@H](C)CO)C[C@@H]1C
1.1	COc1ccc(CN(C)C[C@H]2Oc3c(NC(=O)NC4CCCCC4)cccc3C(=O)N([C@H](C)CO)C[C@@H]2C)cc1
2.1	C[C@H]1CN([C@@H](C)CO)C(=O)c2cc(NC(=O)Cn3cnnn3)ccc2O[C@H]1CN(C)Cc1ccncc1
0.7	C[C@H](CO)N1C[C@H](C)[C@H](CN(C)S(=O)(=O)c2cccs2)Oc2ccc(NC(=O)Nc3ccc(F)cc3)cc2CC1=O
1.0	C[C@H]1CN([C@@H](C)CO)C(=O)Cc2cc(NS(=O)(=O)c3cccs3)ccc2O[C@@H]1CN(C)C(=O)Nc1ccc2c(c1)OCO2
-3.6	COc1ccc(NC(=O)Nc2cccc3c2O[C@H](CN(C)S(=O)(=O)c2ccc(OC)cc2)[C@@H](C)CN([C@@H](C)CO)C3=O)cc1
?	C[C@H](CO)N1C[C@H](C)[C@H](CN(C)S(=O)(=O)c2cn(C)cn2)Oc2c(NC(=O)c3ccncc3)cccc2C1=O
-4.8	C[C@@H]1CN([C@H](C)CO)C(=O)c2cc(NC(=O)c3ccncc3)ccc2O[C@H]1CN(C)S(=O)(=O)c1cccs1
-6.9	CNC[C@H]1Oc2c(NC(=O)NC3CCCCC3)cccc2C(=O)N([C@@H](C)CO)C[C@@H]1C
1.8	C[C@@H]1CN([C@H](C)CO)C(=O)c2cc(NS(C)(=O)=O)ccc2O[C@@H](C)CCCCO[C@@H]1CN(C)C(=O)c1ccccc1
-1.9	C[C@@H]1CN([C@@H](C)CO)C(=O)Cc2cc(NS(C)(=O)=O)ccc2O[C@@H]1CN(C)Cc1ccc(C(F)(F)F)cc1
-6.8	CNC[C@H]1Oc2ccc(NS(=O)(=O)c3cn(C)cn3)cc2CC(=O)N([C@H](C)CO)C[C@@H]1C
-7.9	C[C@@H]1CN([C@H](C)CO)C(=O)Cc2cc(N(C)C)ccc2O[C@H]1CN(C)S(=O)(=O)c1cn(C)cn1
-2.5	C[C@@H]1CCCCO[C@H](CN(C)C)[C@H](C)CN([C@H](C)CO)C(=O)c2cc(NS(=O)(=O)c3ccc(Cl)cc3)ccc2O1
4.1	C[C@@H]1CCCCO[C@@H](CN(C)S(=O)(=O)c2ccccc2)[C@@H](C)CN([C@@H](C)CO)C(=O)c2cc(NC(=O)C3CCCCC3)ccc2O1
-4.7	Cc1noc(C)c1NC(=O)N(C)C[C@H]1Oc2ccc(NC(=O)Cn3cnnn3)cc2C(=O)N([C@H](C)CO)C[C@H]1C
2.0	C[C@H](CO)N1C[C@H](C)[C@@H](CN(C)C(=O)Nc2ccccc2F)OCc2cnnn2CCCC1=O

In another format: results already given.
> C[C@@H]1CN([C@@H](C)CO)C(=O)Cc2cc(NS(C)(=O)=O)ccc2O[C@@H]1CN(C)Cc1ccc(C(F)(F)F)cc1
  Ran importin: -1.9
> CNC[C@H]1Oc2ccc(NS(=O)(=O)c3cn(C)cn3)cc2CC(=O)N([C@H](C)CO)C[C@@H]1C
  Ran importin: -6.8
> C[C@@H]1CN([C@H](C)CO)C(=O)Cc2cc(N(C)C)ccc2O[C@H]1CN(C)S(=O)(=O)c1cn(C)cn1
  Ran importin: -7.9
> C[C@@H]1CCCCO[C@H](CN(C)C)[C@H](C)CN([C@H](C)CO)C(=O)c2cc(NS(=O)(=O)c3ccc(Cl)cc3)ccc2O1
  Ran importin: -2.5

(further entries)
Ran importin	SMILES
?	C[C@@H]1CCCCO[C@H](CN(C)S(=O)(=O)c2ccccc2)[C@@H](C)CN([C@@H](C)CO)C(=O)c2cc(NS(C)(=O)=O)ccc2O1
-1.5	COc1ccc(S(=O)(=O)Nc2cccc3c2O[C@H](CN(C)S(=O)(=O)c2cccs2)[C@@H](C)CN([C@@H](C)CO)C3=O)cc1
?	C[C@@H]1CN([C@H](C)CO)C(=O)c2cc(NS(C)(=O)=O)ccc2O[C@@H](C)CCCCO[C@@H]1CN(C)C(=O)CCC(F)(F)F
-1.3	C[C@H]1CN([C@@H](C)CO)C(=O)c2cc(NS(=O)(=O)c3cccs3)ccc2O[C@@H]1CN(C)C
-2.6	C[C@@H]1CN([C@@H](C)CO)C(=O)c2cc(NS(=O)(=O)c3ccccc3)ccc2O[C@@H](C)CCCCO[C@@H]1CN(C)C(=O)c1ccccc1
-0.3	CNC[C@H]1OCCCC[C@@H](C)Oc2ccc(NC(=O)Nc3ccccc3)cc2C(=O)N([C@H](C)CO)C[C@@H]1C
9.6	CC(C)NC(=O)Nc1cccc2c1O[C@@H](CN(C)Cc1ccccc1)[C@@H](C)CN([C@H](C)CO)C2=O
-1.0	C[C@H]1CN([C@@H](C)CO)C(=O)Cc2cc(NS(=O)(=O)c3cn(C)cn3)ccc2O[C@H]1CN(C)S(=O)(=O)c1ccc(Cl)cc1
2.3	Cc1noc(C)c1S(=O)(=O)N(C)C[C@H]1Oc2ccc(NS(=O)(=O)c3cccs3)cc2CC(=O)N([C@@H](C)CO)C[C@H]1C
9.4	C[C@H](CO)N1C[C@H](C)[C@@H](CN(C)Cc2ccncc2)Oc2ccc(NC(=O)Cc3cn(C)c4ccccc34)cc2CC1=O
-6.0	C[C@@H]1CN([C@@H](C)CO)C(=O)c2cc(NC(=O)Nc3ccc4c(c3)OCO4)ccc2O[C@@H](C)CCCCO[C@H]1CN(C)C
5.3	C[C@@H]1CN([C@@H](C)CO)C(=O)c2cccc(NC(=O)C3CCOCC3)c2O[C@@H]1CN(C)C

Some of the entries so far, field by field:
C[C@@H]1CN([C@@H](C)CO)C(=O)c2cc(NS(=O)(=O)c3ccccc3)ccc2O[C@@H](C)CCCCO[C@@H]1CN(C)C(=O)c1ccccc1
  Ran importin: -2.6

CNC[C@H]1OCCCC[C@@H](C)Oc2ccc(NC(=O)Nc3ccccc3)cc2C(=O)N([C@H](C)CO)C[C@@H]1C
  Ran importin: -0.3

Later entries:
Ran importin	SMILES
-3.1	C[C@H]1CN([C@@H](C)CO)C(=O)c2cc(NC(=O)CCN3CCOCC3)ccc2O[C@H]1CN(C)C(=O)Nc1ccccc1
-0.3	C[C@@H]1CCCCO[C@@H](CN(C)C(=O)C2CCCCC2)[C@@H](C)CN([C@H](C)CO)C(=O)c2cc(N(C)C)ccc2O1
0.5	C[C@H](CO)N1C[C@H](C)[C@H](CN(C)C(=O)NC2CCCCC2)Oc2ccc(NS(=O)(=O)c3ccccc3)cc2C1=O
5.6	C[C@@H]1CCCCO[C@@H](CN(C)S(=O)(=O)c2cn(C)cn2)[C@@H](C)CN([C@H](C)CO)C(=O)c2cc(NC(=O)c3ccccc3)ccc2O1
-3.7	C[C@@H]1CN([C@@H](C)CO)C(=O)CCCn2nncc2CO[C@@H]1CN(C)Cc1ccc2c(c1)OCCN2C
-0.5	CNC[C@@H]1OCCCC[C@@H](C)Oc2ccc(NS(=O)(=O)c3cccs3)cc2C(=O)N([C@H](C)CO)C[C@H]1C
?	Cc1noc(C)c1S(=O)(=O)N(C)C[C@@H]1OCCCC[C@H](C)Oc2ccc(NC(=O)NC(C)C)cc2C(=O)N([C@@H](C)CO)C[C@H]1C
9.4	Cc1noc(C)c1NC(=O)Nc1cccc2c1O[C@@H](CN(C)C(=O)NC1CCCCC1)[C@H](C)CN([C@H](C)CO)C2=O
5.4	CC(C)NC(=O)Nc1ccc2c(c1)C(=O)N([C@H](C)CO)C[C@H](C)[C@H](CN(C)C(=O)Nc1ccc3c(c1)OCO3)OCCCC[C@H](C)O2
5.1	C[C@H](CO)N1C[C@H](C)[C@@H](CN(C)Cc2ccc3c(c2)OCO3)OCc2cn(nn2)CCCC1=O
-1.4	C[C@@H]1CN([C@H](C)CO)C(=O)c2cccc(NC(=O)Nc3cccc4ccccc34)c2O[C@@H]1CN(C)C(=O)NC1CCCCC1
-2.4	C[C@H](CO)N1C[C@H](C)[C@@H](CN(C)C)Oc2ccc(NC(=O)NC3CCCCC3)cc2C1=O
-7.7	C[C@H](CO)N1C[C@H](C)[C@@H](CN(C)Cc2ccncc2)Oc2ccc(NC(=O)NC3CCCCC3)cc2C1=O
-0.5	CNC[C@H]1Oc2ccc(NS(C)(=O)=O)cc2C(=O)N([C@H](C)CO)C[C@@H]1C
2.4	C[C@@H]1CN([C@H](C)CO)C(=O)c2cccc(NS(=O)(=O)c3cccs3)c2O[C@H]1CN(C)Cc1ccc(Oc2ccccc2)cc1
-0.1	C[C@@H]1CCCCO[C@H](CN(C)Cc2ccc(C(=O)O)cc2)[C@H](C)CN([C@@H](C)CO)C(=O)c2cc(NC(=O)c3ccncc3)ccc2O1
2.4	CC(C)NC(=O)Nc1cccc2c1O[C@H](CN(C)Cc1ccc(C(F)(F)F)cc1)[C@H](C)CN([C@H](C)CO)C2=O
4.7	C[C@H]1CCCCO[C@@H](CN(C)S(=O)(=O)c2ccccc2)[C@@H](C)CN([C@@H](C)CO)C(=O)c2cc(NC(=O)Cc3ccccc3)ccc2O1
-4.3	C[C@H](CO)N1C[C@H](C)[C@@H](CN(C)C(=O)Cc2ccccc2)OCCCC[C@H](C)Oc2ccc(NC(=O)Nc3ccccc3)cc2C1=O
-2.7	C[C@@H]1CCCCO[C@H](CN(C)C(=O)CCC(F)(F)F)[C@H](C)CN([C@H](C)CO)C(=O)c2cc(NC(=O)CCC(F)(F)F)ccc2O1
0.0	C[C@@H]1CN([C@H](C)CO)C(=O)CCCn2cc(nn2)CO[C@H]1CN(C)Cc1ccc(Cl)c(Cl)c1
1.6	C[C@@H]1CCCCO[C@@H](CN(C)S(=O)(=O)c2ccccc2)[C@@H](C)CN([C@H](C)CO)C(=O)c2cc(NC(=O)CCC(F)(F)F)ccc2O1
0.1	C[C@@H]1CN([C@H](C)CO)C(=O)c2cccc(NC(=O)c3nc4ccccc4s3)c2O[C@H]1CN(C)S(=O)(=O)c1cccs1
-1.4	CNC[C@H]1Oc2ccc(N(C)C)cc2CC(=O)N([C@H](C)CO)C[C@@H]1C
-3.9	Cc1noc(C)c1NC(=O)Nc1ccc2c(c1)C(=O)N([C@H](C)CO)C[C@@H](C)[C@@H](CN(C)C(=O)NC1CCCCC1)O2
?	C[C@@H]1CN([C@H](C)CO)C(=O)Cc2cc(NC(=O)Cc3cn(C)c4ccccc34)ccc2O[C@@H]1CN(C)Cc1ccncc1
?	C[C@@H]1CN([C@H](C)CO)C(=O)c2cc(NC(=O)Nc3ccccc3)ccc2O[C@@H](C)CCCCO[C@@H]1CN(C)S(=O)(=O)c1ccc(F)cc1
5.9	CNC[C@@H]1Oc2c(NC(=O)C3CCOCC3)cccc2C(=O)N([C@H](C)CO)C[C@H]1C
-1.7	CC(C)NC(=O)Nc1ccc2c(c1)C(=O)N([C@H](C)CO)C[C@@H](C)[C@@H](CN(C)C(=O)Cc1ccccc1)OCCCC[C@H](C)O2
-2.1	C[C@H]1CN([C@@H](C)CO)C(=O)c2cccc(NC(=O)c3ccc(-c4nccs4)cc3)c2O[C@H]1CN(C)C(=O)NC1CCCCC1
?	Cc1noc(C)c1S(=O)(=O)Nc1ccc2c(c1)CC(=O)N([C@@H](C)CO)C[C@@H](C)[C@@H](CN(C)Cc1ccncc1)O2
-3.0	CNC[C@H]1Oc2c(NC(=O)Nc3c(C)noc3C)cccc2C(=O)N([C@H](C)CO)C[C@@H]1C
4.4	C[C@H]1CN([C@@H](C)CO)C(=O)c2cc(NC(=O)NC3CCCCC3)ccc2O[C@H]1CN(C)C(=O)Nc1ccc(F)cc1
-2.6	C[C@H]1CN([C@@H](C)CO)C(=O)CCCn2nncc2CO[C@H]1CN(C)Cc1ccc2c(c1)OCCN2C
1.4	COc1ccc(CN(C)C[C@@H]2Oc3c(NS(=O)(=O)c4c(C)noc4C)cccc3C(=O)N([C@@H](C)CO)C[C@@H]2C)cc1
3.8	C[C@H](CO)N1C[C@H](C)[C@H](CN(C)C)Oc2ccc(NS(=O)(=O)c3ccccc3)cc2CC1=O
-0.2	C[C@H]1CN([C@@H](C)CO)C(=O)c2cc(N(C)C)ccc2O[C@@H]1CN(C)C(=O)NC1CCCCC1
-1.4	C[C@@H]1CN([C@H](C)CO)C(=O)c2cccc(NS(=O)(=O)c3cccs3)c2O[C@H]1CN(C)Cc1ccc(Cl)c(Cl)c1
-1.1	COc1ccc(S(=O)(=O)N(C)C[C@@H]2Oc3ccc(NC(=O)c4ccncc4)cc3C(=O)N([C@H](C)CO)C[C@@H]2C)cc1
-3.3	C[C@@H]1CN([C@@H](C)CO)C(=O)c2cc(NC(=O)C3CC3)ccc2O[C@@H]1CN(C)Cc1ccc(Cl)c(Cl)c1

An excerpt; count on the stated rates, not on these rows.
